FGF22 binding: binders of human FGF22 protein, primary screen, FGF22 synaptogenesis inhibitor project, biophysical, thermal shift, single point; recombinant FGF22 thermal shift, SYPRO orange fluorescence; percent of sucrose octasulfate shift, DMSO zero; 340,000 tested, 1.5% active; Fibroblast growth factor 22 (Homo sapiens), Q9HCT0; calls only at 9.99 µM;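 active = melting point raised past a set limit in the mean and every replicate; inconclusive = no clear call; three in four hits are not shown here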
Ecoli growth: E. coli growth inhibition, primary screen, OD600; Escherichia coli growth, 23 h; stronger effect = lower value; OD600 absorbance (test concentration not listed); 330,000 tested, 0.21% active; AID 1053175, 2014;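 active = OD600 absorbance below the run mean of sample wells minus 3.6 SD, in any replicate, cut at about 0.56 in these data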;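 note: stock transfer was 300 nL into about 60 µL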
ALR inh: inhibitors of human ALR sulfhydryl oxidase, primary screen, biochemical, H2O2 detection, HRP-luminol luminescence, single point | FAD-linked sulfhydryl oxidase ALR (Homo sapiens), P55789 | purified ALR, DTT oxidation | inhibition, % (test concentration not listed) | 290,000 tested, 3.8% active | AID 485317, 2010;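 active = mean and each replicate at 75% or more; inconclusive = only one of the two met; inactive = neither met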;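 note: stock transfer was 7.5 nL into about 7.5 µL; 0% = neutral wells and 100% = wells with inactivated enzyme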
Target sequence (P55789 whole entry, looked up): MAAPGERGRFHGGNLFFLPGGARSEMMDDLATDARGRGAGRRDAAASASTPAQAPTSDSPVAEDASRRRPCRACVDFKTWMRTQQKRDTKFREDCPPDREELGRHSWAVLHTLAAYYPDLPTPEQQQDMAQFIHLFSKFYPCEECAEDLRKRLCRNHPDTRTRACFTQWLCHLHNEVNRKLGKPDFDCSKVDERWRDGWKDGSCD
rRNA inh HTS: reduced GFP signal of wild-type E. coli, primary screen, bacterial rRNA inhibitor project, GFP/RFP fluorescence, OD600, single point; E. coli WT GFP vs humanized-ribosome RFP mutants, 24 h; stronger effect = lower value; DMSO median 0, no signal -100; GFP signal change (wild-type ribosome), % (concentration not given with the values); 350,000 tested, 1.6% active;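 active = significant combined selectivity score with lowered wild-type GFP, culture density cut under 30%, mutant RFP and density less affected; inactive = any of these conditions unmet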; note: one replicate is shown; some compounds called inactive have numbers as strong as hits
UCH37 inh: inhibitors of human UCH37 deubiquitinase, primary screen, biochemical, Ub-AMC cleavage, fluorescence; purified proteasome/UCH37; inhibition, % (concentration not given with the values); 330,000 tested, 0.33% active;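 active = mean of two replicates above 20%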;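 note: 0% = compound-free wells with enzyme and 100% = wells lacking proteasome; stock transfer was 100 nL into about 20 µL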
Target sequence (Q9Y5K5 whole entry, looked up): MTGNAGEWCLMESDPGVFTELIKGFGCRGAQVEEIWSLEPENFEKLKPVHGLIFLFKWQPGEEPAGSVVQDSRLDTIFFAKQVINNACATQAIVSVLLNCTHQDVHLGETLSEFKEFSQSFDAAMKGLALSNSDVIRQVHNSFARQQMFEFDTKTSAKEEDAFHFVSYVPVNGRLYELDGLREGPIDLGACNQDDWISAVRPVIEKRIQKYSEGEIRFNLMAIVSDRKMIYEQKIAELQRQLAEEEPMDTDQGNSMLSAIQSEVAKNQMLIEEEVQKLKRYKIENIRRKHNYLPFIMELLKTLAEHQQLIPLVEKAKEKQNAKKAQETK
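Material: human UCH37 enzyme supplied as purified proteasome complex. Measure: % inhibition of Ub-AMC cleavage fluorescence. Medium: pH 7.4 Tris-HCl (50 mM) with ovalbumin, ATP-MgCl2, DTT. Times: 30 min preincubation with enzyme, 25 min cleavage at room temperature. Detection: AMC fluorescence intensity at 355/460 nm.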
Beta2AR agonist: beta2AR agonists driving receptor internalization, primary screen, cell-based, FAP fluorogen, flow cytometry | Am2.2-beta2AR cells; reference of the scale not given here | response, % (test concentration not listed) | 340,000 tested, 0.43% active | AID 504454, 2011;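 active = response above a set limit, near 3 SD of response in nonfluorescent compounds, cut at about 42% in these data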;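 note: stock transfer was 100 nL into about 11 µL; a reference agonist was the positive control; negative values mostly stem from fluorescent compounds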
HNF4A DNA FP: change in binding of human HNF4A to DNA, primary screen, biochemical, fluorescence polarization, FITC-DNA | 360,000 tested, 0.3% active | 1 h | activity change, % at 10 µM; in the data active = activity change above about 30%, passing the limit was not always enough;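 note: controls were the assay level and a saturating level of protein; the project sought stronger binding though the title names inhibitors; some compounds called inactive have numbers as strong as hits; positive values seem to mean higher polarization but the record does not say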
Target sequence (P41235 whole entry, looked up): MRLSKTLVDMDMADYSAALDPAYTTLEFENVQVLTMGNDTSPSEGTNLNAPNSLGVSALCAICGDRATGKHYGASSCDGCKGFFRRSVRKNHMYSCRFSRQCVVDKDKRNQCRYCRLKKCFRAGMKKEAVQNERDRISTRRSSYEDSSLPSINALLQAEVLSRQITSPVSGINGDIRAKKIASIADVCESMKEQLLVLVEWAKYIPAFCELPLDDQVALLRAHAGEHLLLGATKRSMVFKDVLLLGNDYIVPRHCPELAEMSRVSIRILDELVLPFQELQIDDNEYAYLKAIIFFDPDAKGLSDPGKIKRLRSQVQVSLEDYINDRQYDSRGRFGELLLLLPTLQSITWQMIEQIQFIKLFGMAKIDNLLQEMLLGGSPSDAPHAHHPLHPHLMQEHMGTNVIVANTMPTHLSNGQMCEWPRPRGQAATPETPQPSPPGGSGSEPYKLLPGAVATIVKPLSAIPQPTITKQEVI
rRNA inh HTS OD600: second read-out of rRNA inh HTS, no call of its own (marks repeat the call); OD600 change, %; measured here: OD600 growth;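 optical density of the mix in the first replicate; 0 = DMSO median and -100 = no signal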
rRNA inh HTS RFP: also measured in rRNA inh HTS; calls as there; RFP signal change, %; measured here: RFP humanized mutant strains;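 first replicate; 0 = DMSO median and -100 = no signal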
* marks the source's active call; other numbers are inactive results; i = inactive; ? = inconclusive; nt = no result given; & = joins results of further samples. Some of the compounds tested. The share of hits here may be higher or lower than overall.

Sample of the layout:
SMILES | FGF22 binding | Ecoli growth | ALR inh | rRNA inh HTS | rRNA inh HTS OD600 | rRNA inh HTS RFP | UCH37 inh | Beta2AR agonist | HNF4A DNA FP
CC(C)OC(=O)CN1CCN(c2ccc(Cl)cc2)CC1 | i | 0.66 | 67 | 5 | 1 | -1.1 | 2.4 | 2 | -0.6
CN(C)c1ccc(C=NN2CCCCCC2)cc1 | i | 0.71 | nt | 7 | 13 | 7.2 | 11 | -2 | 7.0
COc1ccc(S(=O)(=O)N2CCCCCC2)cc1NC(=O)c1ccccc1F | i | 0.64 | -1 | nt | nt | nt | -1.4 | 3 | -0.6
C[C@H]1CN([C@@H](C)CO)C(=O)CCCn2nncc2CO[C@@H]1CN(C)Cc1cccc2c1OCCCO2 | i | nt | nt | 5&2 | 10&5 | -0.8&0.1 | nt | nt | -3.1
CC1(C)CC(NS(=O)(=O)c2ccc3ccccc3c2)CC(C)(C)N1 | i | 0.67 | 0 | 5 | 1 | -0.4 | 2.3 | 1 | 4.4
CC(SC1CCCC1)C(=O)NC(C)(C#N)C(C)C (stereo not drawn) | nt | 0.74 | -21 | nt | nt | nt | 5.9 | 3 | 0.0

The list itself, repeating the preview:
SMILES | FGF22 binding | Ecoli growth | ALR inh | rRNA inh HTS | rRNA inh HTS OD600 | rRNA inh HTS RFP | UCH37 inh | Beta2AR agonist | HNF4A DNA FP
CC(C)OC(=O)CN1CCN(c2ccc(Cl)cc2)CC1 | i | 0.66 | 67 | 5 | 1 | -1.1 | 2.4 | 2 | -0.6
CN(C)c1ccc(C=NN2CCCCCC2)cc1 | i | 0.71 | nt | 7 | 13 | 7.2 | 11 | -2 | 7.0
COc1ccc(S(=O)(=O)N2CCCCCC2)cc1NC(=O)c1ccccc1F | i | 0.64 | -1 | nt | nt | nt | -1.4 | 3 | -0.6
C[C@H]1CN([C@@H](C)CO)C(=O)CCCn2nncc2CO[C@@H]1CN(C)Cc1cccc2c1OCCCO2 | i | nt | nt | 5&2 | 10&5 | -0.8&0.1 | nt | nt | -3.1
CC1(C)CC(NS(=O)(=O)c2ccc3ccccc3c2)CC(C)(C)N1 | i | 0.67 | 0 | 5 | 1 | -0.4 | 2.3 | 1 | 4.4
CC(SC1CCCC1)C(=O)NC(C)(C#N)C(C)C (stereo not drawn) | nt | 0.74 | -21 | nt | nt | nt | 5.9 | 3 | 0.0
OCCCCNCc1ccc(OCc2ccccc2)cc1 | nt | 0.7 | -9 | nt | nt | nt | 6.1 | 0 | -1.0
COC(=O)c1cn(-c2ccccc2)nc1-c1ccncc1 | nt | 0.7 | -1 | nt | nt | nt | -0.3 | 12 | 4.7
Cc1ccc(Cl)cc1OCC(=O)NCCOC(=O)Nc1sc(=S)n(C)c1C | nt | 0.62 | 21 | nt | nt | nt | 3.9 | -14 | -1.4
Cc1cn([C@H]2C[C@H](O)[C@@H](CCC(=O)NCC3CCCO3)O2)c(=O)[nH]c1=O (stereo partly drawn) | i | nt | nt | 28 | 14 | 1.5 | nt | nt | -0.4
COc1ccc(-c2nc(CS(=O)(=O)CC(=O)NCc3ccc(F)cc3)c(C)o2)cc1 | i | 0.69 | -1 | 15 | 10 | 0.7 | 1.1 | -1 | -1.9
CCCCC(=O)Nc1nnnn1CCC | i | 0.7 | -1 | 21 | 8 | 1.6 | -0.3 | 9 | 1.4
O=C(O)[C@H]1CCCN1C(=O)c1ccccc1N1C(=O)[C@@H]2Cc3c([nH]c4ccccc34)C(c3cccc(Cl)c3)N2C1=O (stereo partly drawn) | i | 0.74 | nt | -33 | -42 | -10 | 3.0 | -2 | -6.2
CC[n+]1c(/C=C/Nc2ccccc2)sc2ccccc21 | nt | 0.64 | 23 | nt | nt | nt | 4.4 | -4 | 3.1
COCCNC(=O)C1(C)CCCN(CCC(=O)c2ccc(Br)cc2)C1 (stereo not drawn) | i | nt | nt | 6 | 2 | 1.0 | nt | nt | 2.0
COCOCCn1cc(CN2CCS(=O)(=O)N(Cc3ccc(-c4ccc(OC)cc4)cc3)C(C(C)C)C2=O)nn1 (stereo not drawn) | i | nt | nt | -3 | -15 | -2.0 | nt | nt | 6.2
CCOc1cc(/C=N/NC(=O)c2ccc(CSc3nncn3C)cc2)ccc1OCC(=O)N1CCOCC1 | i | nt | ? | -2 | 0 | -2.1 | nt | 4 | -1.4
CCCNC(=O)C(Cc1ccc(OC)cc1)NC(=O)c1ccc(C#N)cc1 (stereo not drawn) | i | 0.69 | 5 | 0 | 1 | -4.1 | -0.6 | 4 | 0.4
COc1cc(C(C)=O)cc(OC)c1O | i | nt | nt | nt | nt | nt | nt | 0 | 8.2
CCN(CC)c1ccc(S(=O)(=O)N2CCOCC2)cc1NC(=O)c1cc(=O)c2ccccc2o1 | i | 0.7 | -3 | 6 | 12 | -3.8 | 2.9 | 13 | -2.8
CSCCNC(=O)C1(C)CCN1C(=O)c1ccc(C(C)(C)C)cc1 (stereo not drawn) | i | nt | nt | 7 | 3 | -0.3 | nt | nt | 0.6
CCN(CC)S(=O)(=O)c1ccc2c(c1)N(CC(=O)N1CCCC1)C(=O)CO2 | i | 0.65 | -6 | 2 | 17 | -2.7 | 1.6 | -19 | 6.7
CCCCCCSC1=C(C#N)C(c2ccc(O)cc2)CC(=O)N1 (stereo not drawn) | nt | 0.74 | 1 | nt | nt | nt | 0.8 | -2 | -2.8
COc1ccc(OC)c(CNC(=O)CCC(=O)N2Cc3cccc(OC)c3Oc3ncccc32)c1 | i | 0.69 | -1 | -2 | -8 | 1.6 | 0.9 | 0 | -0.3
CCOC(=O)N1CCN(c2c(NCCCN3CCCC(C)C3)c(=O)c2=O)CC1 (stereo not drawn) | i | 0.75 | -4 | 12 | 10 | 1.0 | 4.0 | -3 | 2.0
Cc1ccc(C(=O)NCc2ccccc2)c(F)c1F | i | 0.67 | -8 | -18* | -0.4* | -3.4* | 2.1 | -1 | 4.7
CCOc1ccc(S(=O)(=O)N(CC)CC(=O)N2CCOCC2)cc1C | i | 0.65 | 1 | 0 | -3 | -0.8 | -0.5 | -4 | -2.7
O=C(CN1CCN(Cc2ccccc2)CC1)Nc1nnc(C(F)(F)F)s1 | i | 0.64 | 59 | -6 | 3 | -2.4 | 2.4 | 9 | 0.4
O=C(Nc1nc(-c2ccc3c(c2)OCO3)cs1)C1CC1 | i | 0.74 | 1 | -9 | -12 | -3.7 | 5.6 | -26 | 1.5
CCn1c(SCC(=O)OC)nc2cc(S(=O)(=O)N3CCOCC3)ccc21 | i | 0.7 | -5 | 5 | 4 | 1.2 | 0.2 | 19 | 3.7
O=C(Nc1ccc(N2CCOCC2)cc1)c1ccc([N+](=O)[O-])o1 | i | 0.61 | nt | -19* | 8.4* | -5.6* | 7.7 | 6 | -0.8
COc1cc(OC)cc(C(=O)Nc2ccc(NC(=O)c3ccco3)c(C)c2)c1 | i | 0.7 | nt | -7 | -14 | 1.3 | -4.1 | -4 | 2.9
NC(=O)CN1C(=O)C2C3c4ccccc4C(c4ccccc43)C2C1=O (stereo not drawn) | nt | 0.68 | -16 | nt | nt | nt | -0.2 | 3 | -4.2
CC1CC(C)CN(CCCNC(=O)c2ccc(CS(=O)(=O)Cc3cccc(Cl)c3)o2)C1 (stereo not drawn) | i | 0.68 | -5 | 15 | 11 | 3.3 | 2.2 | 7 | 1.1
CCCS(=O)(=O)c1nc(S(=O)(=O)c2ccc(C)cc2)c(N2CCOCC2)s1 | i | 0.73 | -3 | 3 | -1 | -1.1 | 2.4 | -1 | 1.8
COc1ccc(C(=O)OCc2nc(N)nc(Nc3ccccc3C)n2)cc1OC | i | 0.71 | -2 | 6 | 0 | -2.4 | 4.4 | -6 | 0.4
CC(=O)c1ccc(NC(=S)N(CCCN(C)C)Cc2ccccc2)cc1 | i | 0.66 | -3 | 4 | 2 | -0.4 | 3.7 | -8 | -0.2
CSc1ccc(S(=O)(=O)NCC(=O)OCC(=O)N2CC(C)CC(C)C2)cc1[N+](=O)[O-] (stereo not drawn) | i | 0.68 | -6 | 2 | 8 | -1.5 | 4.1 | -4 | 4.2
Cn1c(=O)c(Cc2ccccc2)c(O)c2ccccc21 | i | 0.7 | 55 | 0 | 0 | 5.5 | -6.4 | 1 | -0.3
CN(C)C1(CN=Cc2cc(Cl)cc([N+](=O)[O-])c2O)CCCCC1 | i | 0.67 | -7 | -1 | 9 | 1.6 | 7.3 | 1 | -5.1
CCOC(=O)C1CCN(S(=O)(=O)c2ccc(-c3nc4ccccc4s3)s2)CC1 | nt | 0.78 | -7 | nt | nt | nt | -24 | nt | nt
CCCC(=O)OC1CCS(=O)(=O)c2sccc21 (stereo not drawn) | i | 0.63 | 5 | 14 | 2 | -0.8 | -0.3 | -1 | -0.4
Cc1c(-c2ccn[nH]2)cc(NC(=O)c2ccc(Cl)cc2)c(=O)n1N | i | 0.64 | -2 | 21 | 3 | 0.0 | 2.2 | -4 | 8.8
Cc1cnc(C(=O)OC(C)C(=O)Nc2ccc(Cl)cn2)cn1 (stereo not drawn) | i | 0.69 | -3 | 8 | 11 | 1.1 | 2.6 | -3 | -0.8
O=C(OCC(=O)c1c[nH]c2ccccc12)c1cncc(Br)c1 | i | 0.63 | -4 | -1 | -18 | 5.3 | 1.0 | 3 | 4.5
CCOc1ccc(C(=O)Nc2cccc(C(C)=O)c2)cc1[N+](=O)[O-] | nt | 0.73 | -3 | 7 | 16 | -3.5 | 5.0 | -3 | 1.8
COc1cc2[nH]c(C(=O)N3CCC(Cc4ccccc4)CC3)cc2c(OC)c1OC | i | 0.69 | -13 | -14 | -23 | -7.4 | -0.6 | -9 | -0.4
C/C(Cc1ccccc1)=N\NC(=O)CNC(=O)c1ccccc1O | i | nt | 4 | 7 | -1 | 2.7 | nt | -5 | 2.7
COc1ccc2c(c1)OC[C@H]1[C@H]2N2C(=O)CN(Cc3ccc(F)cc3)C(=O)[C@@]2(C)[C@H]1c1ccccc1 | i | nt | -5 | 2 | -5 | 2.5 | 1.7 | 11 | 2.8
Cc1nc(-c2ccccc2)nc2[nH]c(=O)n(-c3ccccc3)c(=O)c12 | nt | 0.71 | -4 | nt | nt | nt | 3.8 | 10 | 3.0
CCN(CC(=O)NC(C)C)C(=O)[C@@H](NC(=O)c1ccco1)C(C)C | i | 0.69 | -8 | 0 | 4 | -2.2 | -223 | 0 | -3.9
NNC(=O)CCc1nc2ccccc2[nH]1 | i | 0.68 | -2 | 12 | 17 | 2.3 | 2.3 | nt | nt

Limited to Beta2AR agonist and HNF4A DNA FP, for some of the entries so far:
Molecule	Beta2AR agonist	HNF4A DNA FP
Cc1nc(-c2ccccc2)nc2[nH]c(=O)n(-c3ccccc3)c(=O)c12	10	3.0
CCN(CC(=O)NC(C)C)C(=O)[C@@H](NC(=O)c1ccco1)C(C)C	0	-3.9

Source: PubChem (several laboratories)
